Bioassay records from PubChem BioAssay.
CapD inh – Bacillus anthracis CapD inhibitors, primary screen, biochemical, fluorescence intensity. hit rate 0.23% among 140,000. z-score (concentration not given with the values). AID 492967, 2010. CapD gamma-glutamyltranspeptidase (Bacillus anthracis Ames Ancestor). purified CapD enzyme, fluorescence intensity read-out; stronger effect = lower value; some hits fall short of the stated cut;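 active = z-score under -4 in either of two replicates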;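 also: stock transfer was 100 nL into about 40 µL; score is relative to mean and spread of the plate; one replicate is shown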
AID504770 – growth inhibition of E. coli YBA685, primary screen, V. cholerae RctB inhibitors; E. coli YBA685 rctB-dependent plasmid, OD600 growth, 3 h; stronger effect = lower value; z-score (no concentration beside the values); hit rate 0.27% among 130,000; AID 504770, 2011;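 active = z-score under -2 on both plates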;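 also: wells of about 30 µL received 100 nL stock; score is relative to mean and SD of the test wells; the first replicate is given; strong numbers were not always called active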
Starred values were filed as active, the others as inactive; x = no result given; & = joins results of further samples.

Fields – CapD inh	AID504770
- CCCOc1ccc2oc(=O)c3c(c2c1)CCCN3C(=O)CN1CCCc2ccccc21
  0.085	-0.85
- Cc1ccc(NC(=O)CSC2CC(=O)N(c3ccccc3)C2=O)c(Cl)c1 (configuration not stated)
  0.14	0
- COc1ccc(-n2ncc3c(N4CCN(c5cccc(OC)c5)CC4)ncnc32)cc1
  12	x
- COc1ccccc1NCCC(=O)O
  0.03	0.6
- CCC(C)NC(=O)c1ccc(N2CC3CC(C2)c2cccc(=O)n2C3)c(NC(=O)c2cc3ccccc3oc2=O)c1 (configuration not stated)
  -1.2	x
- CCOC(=O)C1=C(C)N(C(C)=O)C(SC)=NC1c1ccccc1 (configuration not stated)
  -0.24	x
- CCOCCOC(=O)C1=C(C)NC2=C(C(=O)CC(c3ccc(OC)cc3)C2)C1c1cccc2ccccc12 (configuration not stated)
  18	x
- C[N+](C)(C)CCC(O)c1ccccc1 (configuration not stated)
  -0.22	-0.2
- CCN1C(=S)N(CC)C2(O)c3ccccc3C(=O)C12O (configuration not stated)
  46	x
- Cc1ccc(C(=O)COC(=O)c2ccc(Br)cn2)cc1
  x	0.75
- CCOC(=O)N1CCN(C(=O)CN2C(=O)/C(=C/c3ccc(OCC)cc3)SC2=S)CC1
  x	-1.3
- Cc1ccc(C(C)C)cc1OCCN
  x	-0.85
- Cc1cc(C)cc(NC(=O)C2CCCN(S(=O)(=O)c3c(C)noc3C)C2)c1 (configuration not stated)
  0.21	-0.65
- COc1ccc(C(C)=O)cc1CS/C(=N/S(=O)(=O)c1ccccc1)Nc1cccc(F)c1
  0.09	x
- COc1ccc(C(C(=O)NCc2ccccc2)N(Cc2ccco2)C(=O)c2cnccn2)cc1 (configuration not stated)
  x	-0.45
- CC(CCc1ccccc1)NC(=O)CSc1cn[nH]n1 (configuration not stated)
  x	0
- CC1CC(CCC(=O)NC(=S)Nc2ccc(S(N)(=O)=O)cc2)C(=O)O1 (configuration not stated)
  0.095	-0.55
- COc1ccccc1NCC(=O)n1nc(C)cc1C
  -0.075	-0.5
- NNC(=O)c1nc(-c2cccc(-n3cccc3)c2)no1
  0.33	-0.2
- O=C(NC1CCN(Cc2ccccc2Sc2ccc(Cl)cc2)C1)N(Cc1ccco1)Cc1cc2ccccc2o1 (configuration not stated)
  -0.015	x
- COc1cc(C)c(CSCC(=O)O)cc1OC
  x	0.05
- N#Cc1nc(-c2ccc(F)cc2)oc1NC1CCCCC1
  -0.51	1.2
- Cc1nc(-c2ccccn2)nc(NCCNc2ccc(C(F)(F)F)cn2)c1Cl
  0.65	-1.1
- CC(=O)C12c3ccccc3C(c3ccccc31)C1C(=O)N(c3ccccc3C#N)C(=O)C12 (configuration not stated)
  -0.32	x
- Cc1nc2cc(C(=O)Nc3ccc(Cn4ccnc4)cc3)ccc2n1-c1ccccc1
  x	0.6
- Cc1nn(-c2ccccc2)c(C)c1CN1CCN(S(=O)(=O)c2cc(Br)ccc2Br)CC1
  0.45	x
- O=C(NCc1ccc2c(c1)OCO2)C(F)(F)F
  -0.35	-0.7
- COc1ccc(OC)c(C(=O)c2coc3ccc(O)cc23)c1
  -0.62	0.1
- CCOc1ccccc1N1C(=O)C2C3c4ccccc4C(C=O)(c4ccccc43)C2C1=O (configuration not stated)
  -0.24	x
- O=C(Cc1ccccc1)Oc1ccc(-c2nccc(-c3ccccn3)n2)cc1
  0.32	x
- CNC(=S)N(Cc1cc2ccc(OC)cc2[nH]c1=O)C1CCCC1
  x	0.2
- O=C(c1cc(-c2ccccc2)on1)N1CCCc2ccccc21
  x	-0.3
- Cc1cccc(CSc2nc3c(cc2C#N)CN(C)CC3)c1
  x	0.15
- CCc1ccc(CN(C)C(=O)c2ccc3c(c2)OCCO3)cc1
  x	-0.95
- Cn1cnc2cc(NCc3ccccc3Cl)ccc21
  15	-0.65
- O=C(OCC(=O)N1CCN(c2ccccc2)CC1)C1=COCCO1
  x	0.75
- CC(c1nnc(-c2cccs2)o1)N1CCC(Cc2ccccc2)CC1 (configuration not stated)
  x	-0.25
- CCOC(=O)c1c(NC(=O)c2ccc(Cl)c([N+](=O)[O-])c2)sc(C(=O)Nc2cc(C(F)(F)F)ccc2Cl)c1C
  0.32	x
- Cc1nc(C)c(C(=O)O)c(-c2ccsc2)c1C(=O)O
  0.75	x
- CCCN1C(=O)/C(=c2\sc3n(c2=O)C(c2cccs2)C(C(=O)OC)=C(C)N=3)c2ccccc21 (configuration not stated)
  -0.035	x
- CCC(C)NC(=O)COc1ccc(C(C)(C)c2ccccc2)cc1 (configuration not stated)
  -0.74	-0.85
- CSC1=NC2(C)CCCCC2C12C=CC(=O)C=C2 (configuration not stated)
  0.14	-2.6
- COc1cccc(C2N(c3ccccc3)CCN2c2ccccc2)c1O
  -0.73	x
- COC(=O)CNc1cn[nH]c(=O)n1
  x	0.45
- COC(=O)c1ccc(Cn2c[n+](N)cn2)cc1
  -0.26	-0.7
- O=C(NNC(=O)C1(c2ccc(Cl)cc2)CCC1)c1cc(=O)n(-c2ccccc2)[nH]1
  0.06	x
- c1ccc(OCCCn2cnc3ccccc32)cc1
  x	1.6
- Cc1ccc(C)c(N2C(=N)S/C(=C\c3ccc(Cl)cc3)C2=O)c1
  -1.1	x
- NN1C(=O)NC2(CCCCC2)C1=O
  x	-0.5
- CCN1CCN(c2nc(-c3ccc(C)cc3)nc3ccccc23)CC1
  0.075	x
- CCCn1c(=O)cc(N)n(-c2ccc(OC(F)(F)F)cc2)c1=O
  0.05	-0.35
- CCN(C(=O)Cn1c(=O)oc2cc(S(=O)(=O)N3CCCC3)ccc21)c1ccccc1
  0.03	-0.35
- COC(=O)c1sccc1Oc1ccc(C(F)(F)F)cc1NS(=O)(=O)c1ccc(F)cc1
  16	x
- CC(C)[C@H](NC(=O)c1cccc(S(=O)(=O)N2CCOCC2)c1)C(=O)Nc1nc2ccccc2s1
  x	1.4
- COC(=O)c1c(NC(=O)CCC(=O)O)sc2c1CCCC2
  3.4	-0.25
- Clc1ccc(-c2noc(CSC3=NCC4CCCC4N3)n2)cc1 (configuration not stated)
  0.43	0.3
- N#C/C(=C\c1ccccc1F)c1ccccc1
  -0.18	-0.8
- CCOc1ccc2nc(SCC(=O)O)oc2c1
  0.53	0.1
- CCCN(CCC)C(=O)/C=C/c1cc(OC)c(OC)c(OC)c1
  7.3	-0.6
- CN1CCN(C(=O)CCC(=O)N2CCN(C(=O)c3cccc(Cl)n3)CC2)CC1
  -0.7	x

Other entries follow:
Fields – CapD inh	AID504770
- CCOC(=O)CSc1nc2c(sc(=S)n2-c2ccc(C(=O)OCC)cc2)c2nc3ccccc3n12
  2.3	x
- CCN(CC)C(=O)c1c(-c2ccccc2)oc2ccc(O)cc12
  2	-0.45
- C=CCOc1ccc(/C=c2\sc3nc(-c4ccccc4OC(C)=O)nn3c2=O)cc1
  -0.45	x
- Cn1c(-c2ccncc2)n[nH]c1=S
  -0.08	x
- N#Cc1ccccc1NC(=O)c1cc(=O)c2ccccc2o1
  0.74	-0.35
- CC(C)=C(NC(=O)c1ccccc1)C(=O)N(C)C
  0.07	-0.7
- Cc1cccc(OCC(=O)Nc2ccc(CN3CCOCC3)cc2)c1C
  -0.065	1.2
- CCOc1nnc(-c2ccc(OC)cc2)c2ccccc12
  -0.47	x
- Fc1ccc(C=Nc2ccc(-n3cccc3)cc2)cc1
  -0.05	2.4
- COc1ccc(N(/N=C2\Sc3ccccc3C2=O)C(C)=O)cc1
  -0.15	1
- CCCCC#Cc1ccc(C(=O)NNC(=O)Nc2ccc(OC(F)(F)F)cc2)o1
  -0.11	x
- O=C(NCCCN1CCOCC1)c1ccc(NC(=O)c2ccccc2)cc1
  -0.28	-0.75
- Nn1c(-c2ccccn2)nnc1-c1ccccn1
  -0.22	0.1
- COC(=O)c1sc(NC(=O)CN2CCCCC2C)c(C(=O)OC)c1C (configuration not stated)
  -0.31	2.1
- COc1ccc(-c2csc(NCc3ccccc3)n2)cc1
  -0.28&-0.52	0.4&0.25
- Cn1cc(C(=O)N2CCN(c3ccccc3F)CC2)c(C(F)(F)F)n1
  0.47	x
- CC1(C)OC(=O)N(Nc2ccccc2)C1(C)O (configuration not stated)
  0.3	0.05
- O=C(COC(=O)c1ccccc1NCc1ccco1)c1ccccc1
  33	x
- O=C(c1nn(-c2ccccc2)c(=O)c2ccccc12)N1CCN(c2ccccc2)CC1
  x	-0.3
- O=C(O)c1c2c(nc3ccc(S(=O)(=O)N4CCC(C(=O)NCc5ccccc5)CC4)cc13)CCCC2
  -0.1	-1
- CN1c2ccsc2C(=O)/C(=C\Nc2cccc(C(F)(F)F)c2)S1(=O)=O
  -0.2	0.25
- CS(=O)(=O)c1cc(C#N)c(N2CCN(S(=O)(=O)c3ccc(Cl)cc3)CC2)nc1-c1ccccc1
  0.55	x
- Cc1ccc(N2CC(O)(c3ccc(F)cc3)[N+]3=C2SCCC3)cc1 (configuration not stated)
  -0.39	x
- COC(=O)c1ccc(CSc2nc3sc4c(c3c(=O)n2C)CCC4)cc1
  -0.31	x
- CC1(C)C=C2C(=NN(c3ccccc3)C(N)=C2C#N)CO1
  x	-0.5
- CN(C)c1cccc(C(=O)NC2CCCc3ccccc32)c1 (configuration not stated)
  x	-0.35
- NC(=O)C1CCN(c2ccnc3cc(Cl)ccc23)CC1
  x	0.65
- CCN1CCCC1CNC(=S)Nc1cccc(C)c1 (configuration not stated)
  x	0.8
- c1cc(C2OCC3(CO2)COC(c2ccncc2)OC3)ccn1 (configuration not stated)
  0.005	-0.8
- COc1ccc(NC(=O)CCc2c(C)noc2C)cn1
  x	-0.85
- Sc1ccc2c(c1)OCCCO2
  x	-0.05
- CCNS(=O)(=O)c1ccc(NC(=O)c2cncc(Br)c2)cc1
  x	0.2
- C=CCOc1ccc(C2/C(=C(\O)c3ccccc3)C(=O)C(=O)N2c2nnc(C)s2)cc1 (configuration not stated)
  -0.46	x
- Cc1cccc(N(C(=O)c2cnc3n(c2=O)CCS3)C2CCCCC2)c1
  x	0.65
- O=C(Nc1ccccc1C(F)(F)F)N1CCC(c2c[nH]c3ccccc23)CC1
  -0.48	x
- CCOC(=O)c1sc2nc(SCC(=O)NCc3ccco3)n(Cc3ccccc3OC)c(=O)c2c1C
  44	x
- c1ccc2oc(SCCSc3nc4ccccc4o3)nc2c1
  0.065	0
- CSc1nc(C=Nc2ccc(Cl)cc2Cl)ccc1C#N
  2.8	-2.4
- Cc1c(OC(=O)c2ccccc2)ccc2c3c(c(=O)oc12)CCC3
  -0.2	1.5
- N#CC1=C(N)Oc2c(c(=O)oc3ccccc23)C12C(=O)Nc1ccc(Br)cc12 (configuration not stated)
  -0.41	x

The list goes on, overlapping the part above by 5 compounds.
Fields – CapD inh	AID504770
- CCOC(=O)c1sc2nc(SCC(=O)NCc3ccco3)n(Cc3ccccc3OC)c(=O)c2c1C
  44	x
- c1ccc2oc(SCCSc3nc4ccccc4o3)nc2c1
  0.065	0
- CSc1nc(C=Nc2ccc(Cl)cc2Cl)ccc1C#N
  2.8	-2.4
- Cc1c(OC(=O)c2ccccc2)ccc2c3c(c(=O)oc12)CCC3
  -0.2	1.5
- N#CC1=C(N)Oc2c(c(=O)oc3ccccc23)C12C(=O)Nc1ccc(Br)cc12 (configuration not stated)
  -0.41	x
- O=C(O)C(NS(=O)(=O)c1cccc2cccnc12)c1ccccc1 (configuration not stated)
  -0.36	-0.45
- COC(=O)c1c(C)oc2ccc(NS(=O)(=O)c3cc(C)ccc3C)cc12
  0.28	x
- COc1ccc(Nc2nc(SC)nc(-c3ccccc3)c2C#N)cc1OC
  0.1	-0.65
- Cc1cc(NC(=O)CCCCCN2CCOCC2)no1
  0.73	1
- CSc1nc2cc(C)nn2c(-c2ccccc2)c1C#N
  -0.025	-0.35
- O=C(CCN(/N=C/c1ccco1)C1=NS(=O)(=O)c2ccccc21)NC1CCCCC1
  0.06	1
- COc1ccccc1NC(=O)C1CCCC1
  x	-0.4
- Cc1cc2cc(CNC(=O)C3CCCCC3)ccc2[nH]1
  0.49	-0.9
- CCN(CC)S(=O)(=O)c1ccc2c(c1)c(=O)c(C(=O)N1CCCC1)cn2C
  -0.25	0.05
- CC(C)c1ccc(NC(=O)C(c2ccccc2)N2CC(=O)Nc3ccccc32)cc1 (configuration not stated)
  1.3	x
- CCC1=Nc2cc(C(=O)NCCCN3CCOCC3)ccc2Sc2ccc(Br)cc21
  0.09	-0.55
- O=C1OC2COC(=O)C2C=C1NC(=O)c1ccc(Cl)cc1 (configuration not stated)
  -0.32	x
- CCCCN1C(=O)N(C)C2C1N(C)C(=O)N2CCCC (configuration not stated)
  -0.095	x
- CC(=O)C1=NN(c2ccc(C)cc2)C2(S1)c1ccccc1C(c1ccc(C(C)C)cc1)=NN2c1ccccc1 (configuration not stated)
  -0.48	x
- O=C(CC12CC3CC(CC(C3)C1)C2)Nc1ccc(-c2nc3ncccc3o2)cc1
  51	2.5
- CCNC(=O)N(C)Cc1nc(-c2ccc(OC)cc2)no1
  -0.02	-0.4
- CCN1C(=O)c2ccc(C(=O)Nc3ccc(C(=O)O)cc3)cc2C1=O
  -0.21	-0.45
- O=C(Cn1c(=O)sc2ccccc21)OC(C(=O)c1ccccc1)c1ccccc1 (configuration not stated)
  -0.18	1.7
- CC(C)CNS(=O)(=O)c1cc(C(=O)O)c(Cl)cc1Cl
  x	1.7
- COc1ccc(C(=O)C/C=N/OCc2ccc(Cl)cc2Cl)cc1
  -0.25	x
- O=C(Nc1cc(Cl)ccc1OC(=O)c1cc(Cl)cc(Cl)c1)c1cc(Cl)cc(Cl)c1
  -0.79	x
- COc1cc2nc3c4ccccc4n(CCC(C)C)c3nc2cc1OC
  3.3	x

Some of the compounds tested (hit frequency here may not be typical).
